# eIF4H FP inh – inhibitors of RNA binding by human eIF4H; Q15056; eIF4H fluorescence polarization binding assay; inhibition, % at 35 µM; 290,000 tested, 0.94% active; AID 2012;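 active = 50% or more with normal probe brightness, or confirmed in later tests; inconclusive = above 50% with abnormal brightness, or retests that disagree; inactive = below 50% or failed in later tests; about a fifth of its hits are not listed in these tables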;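 note: calls also rest on retests at 20 µM and on dose response follow-up; 0% = protein and probe with vehicle and 100% = probe without protein; strong numbers were not always called active; many hits fall short of the cut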
# Rce1 inhib – yeast Ras-converting enzyme inhibition; AID 2563; 290,000 tested, 0.27% active; Q03530; calls only; yeast membranes, quenched prenylated peptide cleavage fluorescence;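 active = fall in fluorescence gain of 50% or more versus controls, with final raw signal at or below 3038400; inconclusive = same 50% fall but final raw signal above 3038400; inactive = fall in fluorescence gain under 50%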;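 note: plate controls were neutral control wells for no effect and wells lacking membranes for full effect; tested at 10 µM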
# Target sequence (Q03530 whole entry, looked up): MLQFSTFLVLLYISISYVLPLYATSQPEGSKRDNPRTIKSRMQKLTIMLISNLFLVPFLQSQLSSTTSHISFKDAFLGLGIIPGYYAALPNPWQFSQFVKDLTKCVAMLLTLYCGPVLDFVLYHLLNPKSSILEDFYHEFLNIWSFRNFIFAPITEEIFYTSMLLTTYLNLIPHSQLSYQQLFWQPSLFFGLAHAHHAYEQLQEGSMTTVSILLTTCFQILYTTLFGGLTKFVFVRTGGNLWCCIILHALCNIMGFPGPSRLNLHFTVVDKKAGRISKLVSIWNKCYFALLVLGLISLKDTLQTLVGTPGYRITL
# HIV Env fusion – blocks HIV Env-driven cell-cell fusion; 360,000 tested, 1.1% active; AID 651610; inhibition, % at 12.3 µM; HeLa-JRFL Env/CEM21 cell fusion, luciferase;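 active = mean replicate inhibition score of at least 50 and every replicate individually at or above 50; inconclusive = only one of the two criteria met; inactive = mean below 50 and not all replicates reaching 50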;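 note: 0% = plate neutral controls and 100% = maraviroc near 300 nM; one replicate is shown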
# Yeast UUG start – alters start codon recognition fidelity in yeast | 350,000 tested, 0.13% active | S. cerevisiae UUG-firefly luciferase reporter, luminescence/redox ratio | activity score, % at 18.7 µM;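 active = replicate mean at a twofold rise or more, about +100% in these data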;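 note: firefly luciferase made from a UUG start codon reports start codon fidelity; reporter light over untreated wells divided by growth signal over untreated wells; some hits fall short of that in this replicate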
# PABP FP inh – PABP-poly(A) binding inhibition; P11940; PABP-poly(A) RNA binding, fluorescence polarization; inhibition, % at 35 µM; 290,000 tested, 1% active; AID 2014;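 active = 50% or more with normal probe brightness, or confirmed in later tests; inconclusive = above 50% with abnormal brightness, or retests that disagree; inactive = below 50% or failed in later tests; about a fifth of its hits are not listed in these tables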;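 note: calls also rest on retests at 20 µM and on dose response follow-up; controls were probe without protein and protein plus probe with vehicle; some compounds called inactive have numbers as strong as hits; many hits fall short of the cut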
# Target sequence (P11940 whole entry, looked up): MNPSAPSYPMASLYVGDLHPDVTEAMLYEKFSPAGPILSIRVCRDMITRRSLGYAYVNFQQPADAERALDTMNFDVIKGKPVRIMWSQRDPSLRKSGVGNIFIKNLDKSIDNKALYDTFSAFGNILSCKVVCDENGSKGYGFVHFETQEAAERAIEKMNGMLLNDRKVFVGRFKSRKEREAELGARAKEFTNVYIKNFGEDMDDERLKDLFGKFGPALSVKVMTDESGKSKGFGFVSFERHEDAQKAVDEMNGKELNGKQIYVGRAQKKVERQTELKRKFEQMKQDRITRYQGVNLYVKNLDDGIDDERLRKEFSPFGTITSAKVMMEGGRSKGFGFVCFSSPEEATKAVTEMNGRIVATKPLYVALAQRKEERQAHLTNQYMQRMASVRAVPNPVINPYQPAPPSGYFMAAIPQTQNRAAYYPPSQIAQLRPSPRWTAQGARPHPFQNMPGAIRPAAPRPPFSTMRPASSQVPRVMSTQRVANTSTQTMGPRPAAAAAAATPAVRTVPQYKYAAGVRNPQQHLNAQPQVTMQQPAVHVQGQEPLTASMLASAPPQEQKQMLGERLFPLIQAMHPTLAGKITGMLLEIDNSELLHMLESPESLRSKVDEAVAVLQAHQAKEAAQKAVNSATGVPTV
# CSC inhib – blocks cancer stem cells. cancer stem cell-like cells viability, luminescence. inhibition, % at 7.5 µM. 300,000 tested, 1.1% active. AID 2717;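 active = mean at 75% or more and at least half the replicates too; inconclusive = mean and replicates disagree; tested in HMLE shEcad cells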;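 note: 0% = median of negative and 100% = median of positive control wells; the first replicate is given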
# MT1-MMP act inh – MT1-MMP (human) activation inhibition; P50281; HT1080 RFP-PRO-GFP cells, GFP/RFP ratio fluorescence, overnight; percent of plate control window, DMSO zero; GFP/RFP ratio change, % at 20 µM; 360,000 tested, 0.061% active; AID 651647;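 active = GFP/RFP ratio change of at least 30% with cell ATP level not reduced by more than half and red fluorescence within 50% of control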; note: strong numbers were not always called active
#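 Material: RFP-PRO-GFP reporter HT1080 cells. Dosing: single-point 20 µM compound, 1% DMSO. Controls: DMSO and RFP-L50D-GFP cell wells. Timing: cells overnight before dosing, compound overnight, 37 °C, 5% CO2. Measure: GFP/RFP fluorescence ratio.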
# MT1-MMP act inh RFP – further read-out of MT1-MMP act inh, marked with its call; RFP signal change, %; measured here: RFP expression control read;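 0 = vehicle wells; hits needed this value within 50% of zero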
# Numbers without * were called inactive; i = inactive; ? = inconclusive; . = no result given.
Structure	eIF4H FP inh	Rce1 inhib	HIV Env fusion	Yeast UUG start	PABP FP inh	CSC inhib	MT1-MMP act inh	MT1-MMP act inh RFP
Cc1cc(C)cc(OCC(=O)Nc2cccc(C(=O)O)c2)c1	2	i	-89	.	9	-4	2	6
COc1cccc(/C=N/NC(=O)COc2cccc3cccnc23)c1O	12	i	-3	-1	0	17	2	2
Cc1ccc(NC(=S)NN2CCN(C)CC2)c(C)c1	0	i	22	.	6	-1	1	3
COCCn1c(N)c(N(Cc2ccccc2)C(=O)Cc2ccccc2F)c(=O)[nH]c1=O	2	i	-27	-15	-6	1	6	6
Cc1ccc(OCC(=O)N(Cc2ccc(N(C)C)cc2)C2CCS(=O)(=O)C2)cc1 (stereo not given)	8	i	-45	-1	4	3	4	3
CCn1c(Sc2ccc([N+](=O)[O-])cn2)nnc1-c1ccco1	-7	i	-12	.	-1	24	-2	-5
COc1ccccc1N(CN1CCCC1=O)C(=O)c1ccccc1F	-3	i	-34	-8	-1	-4	-5	-3
Cc1ccc(C)c(-n2c(SCC(=O)Nc3nonc3C)nnc2-c2ccoc2C)c1	-10	i	.	-9	13	-11	0	-3
COc1cc(F)ccc1-c1cc(C(=O)NCc2ccc(F)cc2)[nH]n1	.	.	-20	-20	.	.	0	1
Nc1ccn([C@@H]2O[C@H](C(=O)N[C@H]3c4ccccc4C[C@H]3O)[C@@H](O)[C@H]2O)c(=O)n1	.	.	?	-6	.	.	3	8
CC(=O)Nc1ccc(S(=O)(=O)N[C@@H](C)C(=O)OCC(=O)Nc2ccc3c(c2)OCCO3)cc1	.	.	-10	4	.	.	4	6
Cc1cccc(NC(=O)CCOc2ccccc2)c1C	-11	i	-1	-2	-11	-7	-3	0
CCOC(=O)C1CCCN(C(=S)Nc2ccc(F)cc2)C1 (stereo not given)	0	i	20	.	-8	13	1	1
COc1cc(NC(=O)Cn2c(-c3cncs3)nc3ccccc32)cc(OC)c1OC	0	i	-19	-3	0	-12	4	2
Brc1c(OCCOCCn2cncn2)ccc2ccccc12	-9	i	-16	-18	-3	3	-4	-8
O=C(/C=C/c1ccccc1[N+](=O)[O-])Nc1ccc(S(=O)(=O)Nc2ncccn2)cc1	1	i	3	-9	14	1	-2	2
COCC1CCN(C(=O)c2cc(COc3ccc(F)cc3F)on2)C1 (stereo not given)	9	i	-17	1	4	-3	0	1
CCOC(=O)CC(N)c1cccc([N+](=O)[O-])c1 (stereo not given)	-2	i	26	.	-6	8	9	5
COc1ccc(NC(=O)C(Cc2cc(C)cc(C)c2)C(C)C(=O)O)cc1 (stereo not given)	-13	.	7	-6	-15	-4	3	5
Cc1cc(C(=O)Nc2ccon2)c(C)o1	-6	i	-10	5	-8	-8	5	6
O=C(O)c1cc(NC(=O)c2cccc(F)c2)cc(NC(=O)c2cccc(F)c2)c1	7	i	5	-11	10	-5	0	5
Cc1cc(C)c(C#N)c(SCC(=O)N(CC(C)C)C2CCS(=O)(=O)C2)n1 (stereo not given)	.	.	4	4	.	.	0	2
O=C(O)CCn1cc(/C=C2/NC(=S)N(c3ccccc3)C2=O)c(-c2ccccc2)n1	-13	i	-3	.	-5	-9	4	4
CS(=O)(=O)N(CC(=O)N1CCOCC1)c1cccc(Cl)c1Cl	8	.	5	6	-4	2	-3	0
O=C(Nc1ccccc1)Nc1nnc(Cc2ccc([N+](=O)[O-])cc2)s1	3	i	.	.	5	11	-2	-6
COc1cc(/C=N\n2nnnc2N)ccc1OCc1ccc(F)cc1	-9	i	.	-38	-19	-10	4	-4
CCOC(=O)CSc1nc2cccnc2n1C	2	i	-21	-3	3	17	-4	0
COc1cc(CCC(=O)Nc2c(C(=O)N3CCN(c4ccccc4)CC3)oc3ccccc23)on1	-4	i	-9	-12	-2	-5	-5	-5
CCOC(=O)N1CCN(C(=O)CSc2nc3c(cnn3-c3ccccc3)c(=O)[nH]2)CC1	-3	i	6	3	9	1	-2	2
COCC(=O)N(CCN(C)C)Cc1cc2cc3c(cc2nc1Cl)OCO3	-4	i	-6	.	7	57	3	6

# Record cards (already shown). Screens in order: eIF4H FP inh, Rce1 inhib, HIV Env fusion, Yeast UUG start, PABP FP inh, CSC inhib, MT1-MMP act inh, MT1-MMP act inh RFP
# Entry for Cc1cc(C(=O)Nc2ccon2)c(C)o1 = -6, i, -10, 5, -8, -8, 5, 6
# Entry for COc1cc(NC(=O)Cn2c(-c3cncs3)nc3ccccc32)cc(OC)c1OC = 0, i, -19, -3, 0, -12, 4, 2

# (more compounds)
Structure	eIF4H FP inh	Rce1 inhib	HIV Env fusion	Yeast UUG start	PABP FP inh	CSC inhib	MT1-MMP act inh	MT1-MMP act inh RFP
CCCN(C(=O)Cc1nc(N)n[nH]1)C1(C(=O)Nc2ccccc2C)CCCCC1	-1	i	.	-30	-2	-20	4	4
CC(=O)Nc1sc2c(c1-c1nc3ccccc3s1)CN(C(C)C)CC2	.	.	?	8	.	.	-150	-6
Cc1ccc2c(cnn2C(=O)CCC(=O)NCc2cccc(Br)c2)c1	2	i	.	-16	4	.	2	2
C=C1CC[C@@H]2[C@](C)(CO)[C@H](O)CC[C@@]2(C)[C@@H]1C/C=C1/C(=O)OCC1O (stereo not given in full)	.	.	12	1	.	.	-3	-6
COc1ccc(C2CCCN2C(=O)Nc2ccc(Cl)cc2)cc1OC (stereo not given)	4	i	19	10	3	2	5	-10
CCOC(=O)c1csc(NC(=O)CCS(=O)(=O)c2ccc(Cl)cc2)n1	.	.	4	-14	.	.	-2	-3
CC(C)Oc1ccc(NC(=O)Oc2ccccc2)cc1	-3	i	.	-23	-4	-12	5	3
COc1cc2c(cc1OC)-c1cc(Nc3ccc(C)cc3)nc(=O)n1CC2	2	i	-4	2	16	-5	3	0
CC(C)CNc1ncnc2c1ncn2[C@H]1CN(Cc2ccco2)C[C@@H](CO)O1	.	.	6	-18	.	.	-3	3
CCOc1ccc(C(=O)COC(=O)C2COc3ccccc3O2)cc1 (stereo not given)	.	.	7	-13	.	4	0	6
Cc1ccc(N(CC(=O)NC2CCCCC2)C(=O)CCC(=O)Nc2nccs2)cc1	0	i	24	-10	8	-31	-7	-8
Cc1ccc(S(=O)(=O)N/N=C/c2ccc(OS(=O)(=O)c3ccc(C)c([N+](=O)[O-])c3)cc2)cc1	4	i	.	-15	10	-9	2	1
O=c1cc(-c2ccc(O)c(O)c2)oc2c1ccc1ccccc12	.	.	0	-1	.	41	-6	-9
CN(C)CCN(C(=O)c1ccc(S(=O)(=O)N2CCc3ccccc32)cc1)c1nc2ccc(F)cc2s1	-6	i	-2	-9	15	3	4	3
Cc1ccc(N2CCN(S(=O)(=O)c3ccc(Cl)s3)CC2C)cc1 (stereo not given)	-8	i	5	-1	9	1	3	-5
COc1ccc(CCn2c(SCCN3CCCCC3)nc3ccccc3c2=O)cc1OC	-10	i	18	-3	2	-13	-3	0
Cc1cccc(-c2nnc(SCC#N)n2-c2cccc(Cl)c2)c1	-11	i	-223	-3	14	-16	-3	0
CC1(C)CC2CC(C)(CN2Cc2cccc([N+](=O)[O-])c2)C1 (stereo not given)	-6	i	-7	10	2	14	0	0
COc1ccc(CNC(=O)C23CN(Cc4ccccc4)CC2C(c2ccc([N+](=O)[O-])cc2)=NO3)cc1 (stereo not given)	-2	i	7	-12	9	2	-9	-8
CCOC(=O)C1=CCN(S(=O)(=O)c2ccc(C)cc2)C1c1ccccc1 (stereo not given)	.	.	1	-5	.	.	2	-5
Cc1c(C(=O)N2CCN(c3ccc([N+](=O)[O-])cc3)CC2)sc2ncn(CC(=O)N3CCOCC3)c(=O)c12	-4	.	14	-15	-2	-3	3	-5
Cc1ccc2nc(NC3=NC(CC(=O)O)C(=O)N3)nc(C)c2c1 (stereo not given)	37	i	-9	1	-40	13	.	.
Cc1occc1C(=O)N/N=C/C1=C(N2CCOCC2)C(=C\c2ccc(Cl)cc2)/CC1	-8	.	11	.	-8	4	-2	4
C[C@H](CO)N1C[C@H](C)[C@@H](CN(C)CC2CCCCC2)Oc2c(NC(=O)CCC(F)(F)F)cccc2C1=O	.	.	35	20	.	12	4	-7
O=C(Cn1ncc2c3ccccc3n(Cc3cccc(Cl)c3)c2c1=O)NCC1CCCO1 (stereo not given)	-5	i	2	-19	-4	-5	-9	-2
O=C(CNc1cccc([N+](=O)[O-])c1)NCCCc1ccccc1	-12	.	12	-7	-5	-6	4	1
C[C@@H]1COC(=O)[C@@H](CC(=O)OC(C)(C)C)C/C=C\C[C@@H](CC(=O)N[C@H](CO)Cc2ccccc2)C(=O)N1	.	.	8	4	.	-20	3	0
CCOC(=O)[C@H](O)[C@@H](O)c1cccc([C@H](O)[C@@H](O)C(=O)OCC)c1	-1	i	-40	9	3	2	12	2
CC(C)(C)NC(=O)c1cc(NC(=O)c2cccs2)cc(NC(=O)c2cccs2)c1	-8	i	.	-19	1	-13	-13	-12
Cc1ccc(C23CC4CC(CC(NC(=O)N5CCN(C)CC5)(C4)C2)C3)cc1	0	i	.	-7	-9	3	1	0
Cc1cccc(C2C3=C(Nc4[nH]n(-c5ccccc5)c(=O)c42)c2ccccc2C3=O)c1 (stereo not given)	2	i	23	.	-5	.	14	-8
NC(=O)c1ccsc1NC(=O)COC(=O)Cc1n[nH]c(=O)c2ccccc12	.	.	-5	-8	.	10	-2	1
CC(C)(C)OC(=O)N[C@@H](Cc1ccccc1)c1nnc(S(=O)(=O)Cc2cccc(F)c2)o1	-6	i	.	.	-3	?	.	.
O=C(Cn1cnc2ccccc2c1=O)c1ccc(Cl)cc1	3	i	-15	.	3	.	1	3
Cc1ccc(-c2nc(CS(=O)CC(=O)NCCC(C)C)c(C)o2)cc1 (stereo not given)	0	i	-7	0	8	-16	-1	-1
Cn1cc(-c2nnnn2-c2ccc(Cl)cc2)c(=O)c2ccccc21	-2	i	-54	-4	1	-3	0	5
CC(C)CNc1nc(Oc2ccc(=O)n(-c3ccccc3)n2)nc(N2CCOCC2)n1	-1	i	.	-6	-6	-7	-1	1
COc1ccc(OCc2nnc(SCC(=O)NCc3ccco3)o2)cc1	-8	i	-23	-1	-11	-10	0	0
C=CCNC(=O)c1ccc(NC(=O)CC2SC(N3CCCC3)=NC2=O)cc1 (stereo not given)	.	i	1	5	.	-11	1	3
CC1(C)Cc2c(cnn2-c2cccc(F)c2)C(NC(=O)CCN2CCCC2=O)C1 (stereo not given)	-4	i	7	-21	0	-6	0	4
CC(C)C(NC(=O)c1c(F)cccc1F)C(=O)N1CCN(S(=O)(=O)/C=C/c2ccccc2)CC1 (stereo not given)	.	.	.	2	.	-3	-3	-5
NC(=O)N/N=C/c1cn(CC(=O)Nc2ccc(F)cc2)c2ccccc12	6	i	0	5	-7	20	4	-4
CC(=O)c1ccc(N(CC(=O)NCC2CCCO2)C(=O)CCC(=O)Nc2cc(C)on2)cc1 (stereo not given)	7	i	23	-1	-1	14	-2	1
Cc1cc(C)n2nc(-c3ccc(Cl)cc3)cc2n1	-13	i	-78	-17	-7	-6	-7	-2
CCN(CC)CCCNC(=S)N(Cc1cccnc1)Cc1cc2cc(C)cc(C)c2[nH]c1=O	-2	i	-3	.	2	11	-7	-4
CC(=O)Nc1ccc(C(=O)OCCc2ccccc2)cc1	-3	.	-23	-12	1	-8	-1	-2
COc1ccc(NC(=S)Nc2ccc(Oc3ccccc3)cc2)cc1	10	i	.	-21	3	13	0	0

# Compound activity as filed in PubChem BioAssay.

# Compounds as they come. About 2.9% of those tested had a hit in this group.
